Screening data: PubChem BioAssay, ICCB-Longwood Screening Facility, Harvard Medical School
Bm FixLJ act: activators of Burkholderia fixLJ two-component system. AID 1918990. z-score (no concentration beside the values). 29,000 compounds, 0.3% hits. B. multivorans fixK-promoter GFP reporter, 18 h; hits give high values;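 active = replicate mean overnight rise in green fluorescent reporter signal, 3 or more SD over negative controls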;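 note: score is relative to vehicle wells of the plate; 300 nL library stock went into each well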
* hit, by the source's call; & = joins results of further samples. Only part of the results is shown (hit frequency here may not be typical).

Compound	Bm FixLJ act
Cc1cc(NS(=O)(=O)c2ccc3c(c2)CN(C(=O)C(O)C(C)C)CC3)no1 (stereo unspecified)	-1.1
COc1ccc(OC)c(NC(=O)CN2C(=O)CC(c3ccco3)Sc3ccccc32)c1 (stereo unspecified)	-0.59
COc1cc(CNCCSc2nnnn2C)ccc1OCc1c(F)cccc1Cl	-0.97
CCOc1ccc(C(=O)N2CCC(c3nnc(-c4ccccc4OC)o3)CC2)cc1	-0.98
COc1ccc(CCNC(=O)CCc2c(C)nc3c(c(C)nn3-c3ccc(C)c(C)c3)c2C)cc1OC	-1.4
Cc1cccc(Cn2c(=O)n(CCc3ccccc3)c(=O)c3sc4ccccc4c32)c1	0.82
CCN(c1cccc(C)c1)C(CNS(=O)(=O)c1ccccc1)c1ccccc1 (stereo unspecified)	0.17
O=C(NCC1(c2ccccc2)CCCC1)C(=O)Nc1cccc(C(F)(F)F)c1	-1.3
COc1ccc2c(c1)-c1nc(NC(=O)c3ccc(Cl)cc3)sc1CC2	-0.1
CC(=O)c1cccc(Nc2nn(-c3ccc(OC(F)(F)F)cc3)nc2C(C)=O)c1	-1.4
Cc1cccc(NC(=O)C2CCN(S(=O)(=O)c3cccc4nsnc34)CC2)c1	-0.03
CCN(CC)C(=O)C1=C(C)Nc2nc3ccccc3n2C1c1ccc(Br)cc1 (stereo unspecified)	-1.6
Cc1cc(C)cc(C(=O)Nc2c(C(=O)Nc3ccccc3F)oc3ccccc23)c1	-1.5
COCCn1c(CN2CCC(C)(C#N)CC2)nnc1C1CC(N)C1 (stereo unspecified)	-0.75
Cc1ccc(Sc2c(C)nn(C(=O)c3ccc(Br)cc3)c2C)cc1	-1.1
COc1ccccc1OCc1cc(C(=O)N2CCNC(=O)C2C(C)C)n[nH]1 (stereo unspecified)	-0.05

Some of these compounds in order of formula weight, largest number first.
Compound	Bm FixLJ act
Cc1cccc(Cn2c(=O)n(CCc3ccccc3)c(=O)c3sc4ccccc4c32)c1	0.82
Cc1cccc(NC(=O)C2CCN(S(=O)(=O)c3cccc4nsnc34)CC2)c1	-0.03
CC(=O)c1cccc(Nc2nn(-c3ccc(OC(F)(F)F)cc3)nc2C(C)=O)c1	-1.4

Additional entries:
Compound	Bm FixLJ act
Cc1ccc(NC(=O)C2CCCN2S(=O)(=O)c2cccc3nsnc23)cc1Cl (stereo unspecified)	-2
Cc1cc(C)cc(NC(=O)Cn2c(=O)oc3cc(S(=O)(=O)N4CCCC4)ccc32)c1	0.01
Cc1cc(=O)n2nc(N3CCC(C(=O)NCc4ccccc4F)CC3)sc2n1	-2.1
Cn1nccc1CCC(=O)NC1CCN(c2cnccn2)CC1	0.09
Cc1c(Cl)cccc1NC(=O)c1ccc(C(=O)Nc2cccc(Cl)c2C)cc1	0.21
COCCn1cnnc1CCNC(=O)c1cnc(-c2cccnc2)nc1C	0.7
Cc1c(C(=O)OCC2CCCCC2)[nH]c2c1C(=O)CC(c1ccccc1Cl)C2 (stereo unspecified)	0.18
CCN1CC(CN(C)C(=O)c2cc(C(C)(C)C)c(O)c(C(C)(C)C)c2)CC1=O (stereo unspecified)	0.48
NC(=O)CC1CCCCN1C(=O)c1ccc(-c2cc(Cl)ccc2O)cc1 (stereo unspecified)	-2
CCCCNc1nc(Oc2ccc(=O)n(-c3ccccc3)n2)nc(N(CC)CC)n1	0.03
COc1ccc(-n2nc(C(=O)N(C)c3cccc(C(F)(F)F)c3)c3c4ccccc4n(C)c3c2=O)cc1	0.36
CCCCCOc1ccc(/C=C/C(=O)Nc2sc(C)c(C)c2C(=O)OCC)cc1OC	0.45
Cc1ccc(NC(=O)C2CCCN(S(=O)(=O)c3c(C)n[nH]c3C)C2)c(C)c1 (stereo unspecified)	1.4
CCn1c(=O)n(-c2cccc(Cl)c2)c(=O)c2sc3ccccc3c21	-0.68
O=C(c1ccnc(NCCCc2ccccc2F)c1)N1CCOCC1	-0.01
CC(=O)Nc1ccc(NC(=O)c2nc(S(=O)(=O)Cc3ccc(F)cc3)ncc2Cl)cc1	-1.2
COc1ccc(C2(CNC(=O)C(=O)Nc3ccccc3C)CCCC2)cc1OC	-1.4
CCOC(=O)c1cc2c(=O)n3ccccc3nc2n(Cc2ccco2)c1=NC(=O)c1ccccc1Br	-2.3
COc1ccccc1OCC(=O)N1CCC2(CC1)OCCc1c2[nH]c2ccccc12	-2.5
COc1ccc2oc(=O)c(C(=O)Nc3cccc(C(=O)O)c3)cc2c1	-0.86
CCC(=O)N1CCc2cc(S(=O)(=O)NCCC(=O)Nc3ccc(C)cc3C)ccc21	-0.24
Cn1c(=O)oc2cc(S(=O)(=O)N3CCCC(C(=O)NCCc4ccccc4)C3)ccc21 (stereo unspecified)	-1.3
COc1ccccc1NC(=O)c1c(NC(=O)c2ccccc2Cl)sc2c1CCC2	0.36
CCOc1ccc(-c2nc3c(c(SCC(=O)N4CCCCC4)n2)Cc2cc(C)ccc2O3)cc1	-0.49
CCOc1ccc(NC(=O)CCc2c(C)nc3nc(-c4cc(OC)cc(OC)c4)nn3c2C)cc1	0.28
COc1ccc(N2CCN(C(=O)CN3C(=O)COc4ccc(S(=O)(=O)N5CCC(C)CC5)cc43)CC2)cc1	-1.2
Cc1cc(C2CCCCN2C(=O)c2onc3ncccc23)no1 (stereo unspecified)	-0.57
CCCCC1C(=O)N(c2ccccc2)N(c2ccc(O)cc2)C1=O (stereo unspecified)	0.12
CCOC(=O)c1ccc(NC(=O)c2c(-c3c(F)cccc3Cl)noc2C)cc1	-2.4
CN(C)c1ncc(C=CC(=O)N2CCCC2C(=O)N2CCOCC2)cn1 (stereo unspecified)	0.76
CCc1ccc(NC(=O)C2CCN(S(=O)(=O)c3c(C)noc3/C=C/c3ccco3)CC2)cc1	-1.9
O=C(O)[C@H]1/C(=C/CO)O[C@@H]2CC(=O)N21	-0.12
COc1ccc(-c2nc3ccccc3s2)cc1NC(=O)c1ccc(F)cc1	0.5
CCSc1nc2sc3c(c2c(=O)n1-c1ccc(C)c(Cl)c1)CCN(C(C)=O)C3	-0.07
Cc1noc(C)c1-c1ccc(S(=O)(=O)NCCn2cncn2)s1	-0.75
Cc1ccc(C2=Nc3ccccc3N=C(c3ccc(F)cc3)C2)c(O)c1	0.56
CCc1ncc(C(=O)N2CC3CCC(C2)N(Cc2cscn2)C3=O)cn1 (stereo unspecified)	-0.81
CC(=O)c1c(C)n(-c2ccc(C)cc2)c2ccc(OC(=O)COc3ccccc3)cc12	0.62
Cc1ccc2c(CC(=O)Nc3c(C(=O)c4ccc(F)cc4)oc4ccccc34)coc2c1	-1.7
CSCCC(NS(=O)(=O)c1ccc2c(c1)oc(=O)n2C)C(=O)NCc1ccc(F)cc1 (stereo unspecified)	0.07

Exported with each value named: entries from further up.
Cc1cc(=O)n2nc(N3CCC(C(=O)NCc4ccccc4F)CC3)sc2n1
  Bm FixLJ act: -2.1
Cc1ccc2c(CC(=O)Nc3c(C(=O)c4ccc(F)cc4)oc4ccccc34)coc2c1
  Bm FixLJ act: -1.7
COc1ccc2c(c1)-c1nc(NC(=O)c3ccc(Cl)cc3)sc1CC2
  Bm FixLJ act: -0.1
CCCCNc1nc(Oc2ccc(=O)n(-c3ccccc3)n2)nc(N(CC)CC)n1
  Bm FixLJ act: 0.03

(more compounds)
Compound	Bm FixLJ act
O=C(c1ccc2c(Cl)c3c(nc2c1)CCCC3)N1CCN(c2ccc(Cl)cc2)CC1	0.49
CCCn1nccc1C(=O)N1CCCC2(C1)C(=O)Nc1ccccc12 (stereo unspecified)	-1
Cc1cc(C(=O)N2CCCC3(CCc4cn[nH]c43)C2)ccc1N1CCOCC1 (stereo unspecified)	0.67
COc1ccc(Nc2ncc(C(=O)N3CCN(c4cccc(Cl)c4)CC3)c3ccccc23)cc1	0.7
COc1cc2ccccc2cc1C(=O)Nc1ccc2oc(-c3ccc(Cl)cc3)nc2c1	0.74
Cc1ccc(NC(=O)Cn2c(=O)n(Cc3ccc4c(c3)OCO4)c(=O)c3ccc(C(=O)NC4CCCCC4)cc32)c(C)c1	-0.24
COc1cccc(C(=O)c2sc3nc(-c4ccccc4)cc(C(F)(F)F)c3c2N)c1	0.74
CCOc1ccc(-c2cc3c(=O)n(Cc4nc(-c5ccccc5OCC)oc4C)ccn3n2)cc1Cl	0.24

Going on with the list.
| SMILES | Bm FixLJ act |
| --- | --- |
| CC(=O)N1c2ccccc2C(C)(c2ccc(C)cc2)CC1(C)C (stereo unspecified) | -1.8 |
| C#CCn1c(C2CC(=O)N(c3ccc(OCC)cc3)C2)nc2ccccc21 (stereo unspecified) | -0.04 |
| CCc1ccc(CNC(=O)c2ccc(CSc3nc4ccncc4n3Cc3ccccc3)cc2)cc1 | -0.4 |
| Cc1ccc(CNC(=O)CN(c2ccc(Cl)cc2Cl)S(=O)(=O)c2ccccc2)cc1 | 0.16 |
| Cc1ccc(NC(=O)c2cc(-c3ccc(Br)s3)nc3ccccc23)cc1F | -3.5 |
| Cc1cccc(-c2nnc(SCC(=O)NC3CCCCC3)o2)c1 | -0.62 |
| CSc1ccc(S(=O)(=O)NCCC2CCCOC2)cc1 (stereo unspecified) | 0.86 |
| COc1ccc(NC(=O)NCC2CCN(Cc3ccccc3F)CC2)c(OC)c1 | -0.03 |
| Cc1ccc(C)c(OCc2nc3ccccc3n2C)c1 | -1.7 |
| CC(=O)c1cccc(NC(=O)c2nc3ccccc3n(C)c2=O)c1 | -0.75 |
| Cc1cc(N2CCN(c3ccccc3F)CC2)n2cnnc2n1 | -1.1 |
| Cc1noc(-c2ccnc(NCc3cnn(-c4cccc(F)c4)c3)c2)n1 | -1.1 |
| Cc1ccc(C(=O)c2sc(Nc3ccc(F)cc3)c(C#N)c2N)cc1 | 0.57 |
| COc1ccc(C)cc1NC(=O)CC1NCCNC1=O (stereo unspecified) | -1.5 |
| O=C(Cn1cc(C(=O)C2CCCCC2)c2ccccc21)Nc1ccccc1Cl | -0.09 |
| O=C(O)c1[nH]ncc1CN1CCN(C2CCSCC2)CC1 | -0.49 |
| CCc1cc2c(cc3c(=O)n(CC(=O)N4CCCCC4)nc(CC)n32)s1 | -2 |
| Cc1ccc2c(CC(=O)Nc3ccc(S(=O)(=O)N4CCC(C)CC4)cc3)coc2c1 | 0.04 |
| Cn1c(=O)n(C)c2cc(N3CCOCC3)c(NC(=O)c3ccc(C(C)(C)C)cc3)cc21 | -0.38 |
| COc1ccc2[nH]c(CNC(=O)c3ccc4ncsc4c3)cc2c1 | 0.23 |
| Cc1cc2[nH]c(=O)[nH]c2c(NC(=O)CCc2scnc2C)c1C | -1.1 |
| Cc1nnc(SCC(=O)NCc2ccc(-n3cncn3)cc2)s1 | -1.7 |
| O=C(NCc1ccccc1Cl)c1cc2c(s1)-c1ccc(Cl)cc1SC2 | -2.1 |
| CCOc1ccccc1C1CC(=O)Oc2c1c(=O)n(C)c1ccccc21 (stereo unspecified) | -1.4 |
| CN(C(=O)CCc1nc(-c2ccccc2F)no1)c1ccc(Cl)cc1 | -0.15 |
| CCCCc1nc2ccccc2n2c(-c3ccc(C)cc3)c3c(=O)n(C)c(=O)n(C)c3c12 | -0.35 |
| O=C(Nc1ccc(F)cc1F)c1ccc2c(=O)n3c(nc2c1)CCCCC3 | -2.3 |
| Cc1cn2c(=O)cc(COc3cccc(NC(=O)c4ccccc4C)c3)nc2s1 | -0.49 |
| O=C(Cn1nc(-c2ccc(Cl)cc2)c2ccccc2c1=O)Nc1cccc(Br)c1 | -2.2 |
| CCOC(=O)c1oc2ccc(S(=O)(=O)n3nc(-c4cc(OCC)c(OCC)c(OCC)c4)cc3N)cc2c1C | 1.1 |
| CC(=O)N1CCC(CNc2nc3c(s2)c(C)nn3C)CC1 | -7 |
| CC(=O)NCCCC(=O)N1CC2c3ccccc3OC[C@]2(C(=O)O)C1 (stereo partly specified) | -0.18 |
| Cc1ccc(NC(=O)CSc2nc(C)c(Cc3ccccc3)c(=O)[nH]2)cc1C | -5.5 |
| CCn1cc(C(=O)NCCCN2CCCC(C)C2)c(=O)c2cc(S(=O)(=O)N(C)C3CCCCC3)ccc21 (stereo unspecified) | 0.04 |
| O=C(NCc1nc(-c2ccncc2)n[nH]1)c1nc2c(s1)CCCC2 | 0 |
| CCOc1ccc(NC2SC(=O)N(Cc3ccccc3)C2=O)cc1 (stereo unspecified) | -2.7 |
| CCC1CCCCN1C(=O)c1nn(-c2ccc(C)cc2)c(=O)c2c1c1ccccc1n2C (stereo unspecified) | -1.4 |
| O=C(c1ccc(OCCN2CCCCC2)cc1)c1c(-c2ccc(O)cc2)sc2cc(O)ccc12 | -1.1&-0.75 |
| COc1ccc(CNC(=O)c2cc(-c3cccs3)nc3ccccc23)c(OC)c1 | 2 |
| Cc1cc(C)c(NC(=O)NC2CC(=O)N(Cc3ccccc3)C2)c(C)n1 (stereo unspecified) | 1.7 |
| CCOc1ccccc1N1CC(c2nc3ccccc3n2Cc2c(C)cc(C)cc2C)CC1=O (stereo unspecified) | -1.1 |
| COc1ccnc(C(=O)Nc2ccc(C(=O)NC(C)C)cc2)c1 | -0.15 |
| CCCn1cc(C(=O)NCC2CCN(C(=O)C3=NNC(=O)CC3)CC2)c(C)n1 | -0.09 |
| Clc1ccc2nc(-c3ccc(Br)o3)c(Nc3ccc4c(c3)OCCO4)n2c1 | -1.1 |
| CCOC(=O)COc1ccc(C)cc1C(=O)c1ccn2nc(-c3ccc(C)cc3)cc2n1 | 0.52 |
| COCCC1CN(c2nc(C(C)(C)C)nc3c2cnn3C)CCO1 (stereo unspecified) | -1.5 |
| Cn1c(CCCNC(=O)N(CC2CC2)CC2CCCO2)nc2ccccc21 (stereo unspecified) | 0.37 |
| CNC(=O)C1CC(n2cc(CNC(=O)c3ccc(F)c(C)c3)nn2)CN1 (stereo unspecified) | -1.9 |
| Cc1ccc(C#N)c(N2CCC3(CCCN(CC4CCC4)C3=O)C2)n1 (stereo unspecified) | 1.9 |
| COc1ccc(CCNC(=O)CN(c2ccc(C)cc2)S(=O)(=O)c2ccc(OC)cc2)cc1 | 0.05 |
| CC(=O)N1CCc2c(sc3nc(SCC(C)C)n(-c4ccc(C)c(Cl)c4)c(=O)c23)C1 | -2.2 |
| CCN1C(C(=O)c2ccccc2)=C(OC(=O)COc2ccc(C)cc2)c2ccccc2S1(=O)=O | -0.68 |
| COC(=O)c1c(NC(=O)COc2ccc(Cl)cc2)sc(C)c1C | -0.13 |
